# Rango-impB inh: prevents formation of the Rango-importin beta complex | AID 540263 | 340,000 compounds, 0.031% hits | Q14974 | Potency, µM (titrated, usually from 92.2 µM), without a hit: top-dose inhibition of complex formation | Rango CFP/YFP FRET sensor + importin beta, 45 min; active = rising FRET ratio curve, often small or poorly fitted; inconclusive = mostly compound fluorescence or quenching in the first reads; inactive = flat curves in all reads;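 further: potency means the concentration at half of the fitted maximal effect; 0% = DMSO wells and 100% = buffer wells lacking importin beta; nearly all actives have a fitted effect of over 15% in size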
#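 FRET biosensor (snurportin 1 IBB flanked by EYFP and cerulean), 50 nM, with compound 5 min, then 0.125 microM importin beta in PBS, 1 mM DTT, 0.02% Tween-20, 0.1% BSA. CFP/YFP ratio read after 45 min at room temperature; pre-read flags interference.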
# Rango release inh: inhibitors of RanGTP-induced Rango-importin beta complex dissociation; Potency, µM (highest dose often 46.1 µM), for inactives: top-dose activity change, negative = inhibition; AID 540253; Biochemical FRET Rango-importin beta, RanGTP-induced dissociation; O95149+P62826; 340,000 compounds, 0.071% hits; active means falling FRET ratio curve, often poorly fitted, with flat reads before Ran was added; inconclusive means other falling curves, or compound fluorescence or quenching; inactive means flat or rising ratio curve;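 further: potency means the concentration at half of the fitted maximal effect; % of control where 0% means no effect; nearly all actives have a fitted effect of over 45% in size; -100% = wells without RanGTP and RCC1; the record marks most hits as doubtful in a second field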
#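 Compounds sat 5 min at room temperature with 0.1 uM Rango biosensor plus 0.25 uM importin beta, then FRET pre-read. RanGTP-RCC1 (0.6 uM Ran, 2mM GTP, 0.2 uM RCC1) added for 45 min, and the CFP/YFP post-read measured blocked complex dissociation.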
# miR-21 reporter: raises the signal of a miR-21 reporter; AID 2288; Potency, µM (doses to about 38.3 µM), without a hit: top-dose reporter change, positive = more light; 340,000 tested, under 10 active; HeLa miR-21 FLuc reporter, luciferase, 48 h; active = well fitted rising curve with a large enough effect; inconclusive = small, poorly fitted or top-dose-only effect; inactive = no such curve, though single readings can be large or run the other way;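 further: % of control where 0% means no effect; miR-21 action dims this reporter so a rising signal means less miR-21 action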
#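 Compounds were titrated across several concentrations (up to approximately 40 uM) and incubated 48 hours with HeLa miR-21-FLuc reporter cells (miR-21 target sequence downstream of FLuc, endogenous miR-21). Readout was firefly luciferase luminescence after lytic detection reagent.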
# GLA inh pH 4.5: alpha-galactosidase A (human) inhibition, pH 4.5. purified enzyme, 4-MU-alpha-Gal fluorescence, pH 4.5. activity change, negative = inhibition, % at 105 µM. 230,000 tested, under 10 active. AID 1467; inconclusive = small, poorly fitted or top-dose-only inhibition, or a rising curve; inactive = flat fitted curve, though single readings scatter; no compound was filed as active;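 further: 0% = full activity with enzyme and -100% = basal without enzyme; dose as in the result columns while the protocol names 77 µM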
# Target sequence (P06280 whole entry, looked up): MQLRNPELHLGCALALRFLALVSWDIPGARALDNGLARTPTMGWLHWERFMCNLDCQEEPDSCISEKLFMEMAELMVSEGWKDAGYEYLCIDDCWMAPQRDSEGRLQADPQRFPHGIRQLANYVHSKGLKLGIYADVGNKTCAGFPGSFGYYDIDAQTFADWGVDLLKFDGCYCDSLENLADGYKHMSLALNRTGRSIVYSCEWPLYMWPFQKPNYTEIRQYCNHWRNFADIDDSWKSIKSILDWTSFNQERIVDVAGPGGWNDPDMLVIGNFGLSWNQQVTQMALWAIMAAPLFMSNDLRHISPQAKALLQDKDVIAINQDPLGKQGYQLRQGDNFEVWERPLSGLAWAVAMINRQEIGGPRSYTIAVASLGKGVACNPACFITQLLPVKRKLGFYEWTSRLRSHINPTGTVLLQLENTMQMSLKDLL
# Starred values were filed as active, the others as inactive; ? = inconclusive; · = not tested or not shown; & = joins results of further samples; [ ] = another dose, or the depositor's remark.
SMILES,Rango-impB inh,Rango release inh,miR-21 reporter,GLA inh pH 4.5
CCOCCCNC(=O)C(NC(=O)c1ccccc1O)c1ccccc1 (stereo not given),1.0%,-11%,-4%,0
O=C(CSc1nnc(COc2ccccc2)o1)N1CCCC1,6.8%,26%,-2%,·
COc1ccc(CN(C(=O)CNC(=O)c2ccco2)C(C(=O)NCC2CCCO2)c2ccccc2)cc1 (stereo not given),2.7%,7%,2%,·
C/C(=N\Nc1ccc(C(=O)O)cc1)c1ccc(S(=O)(=O)NCc2ccco2)cc1,6.3%,1%,-43%,-1
O=C(CSc1nc2cc([N+](=O)[O-])ccc2n1-c1ccccc1)NCc1ccc2c(c1)OCO2,1.7%,19%,-3%,2
O=C(NCc1ccc(Cl)cc1)Nc1ccc(F)cc1,0.0%,0%,-27%,·
NC(=O)Nc1ccc(C(=O)OCC(=O)Nc2cccc(S(=O)(=O)NC3=NCCC3)c2)cc1,-2.5%,16%,·,·
CCOC(=O)N/N=C(/C)c1ccc(N2C(=O)C3CCCCC3C2=O)cc1 (stereo not given),-0.9%,11%,-5%,2[21.1 µM]
Cc1onc(-c2ccccc2Cl)c1C(=O)N1CCN(C(=O)c2ccco2)CC1,-0.5%,13%,-5%,-23
FC(F)(F)C(Oc1nc(Nc2ccc(Cl)cc2)nc(N2CCOCC2)n1)C(F)(F)F,-0.2%,-8%,-2%,-9
Cc1cc(C(=O)OC2CCOC2=O)c2ccccc2n1 (stereo not given),7.0%,-11%,-2%,-1
N#CC1=C(N)Oc2cc(N)ccc2C1c1ccc(Cl)cc1 (stereo not given),?,?,0%,·
Cc1ccc(S(=O)(=O)N(C)CC(=O)Nc2nnc(CC(C)C)s2)cc1,-0.6%,18%,3%,·
O=C(c1ccc(F)cc1)C(CN1CCOCC1)c1ccccc1 (stereo not given),0.3%,18%,?,-2
CCCCCCN=CC1=C(O)C(C(=O)OC)C(C)(C)CC1=O (stereo not given),1.7%,1%,0%,2
CCCn1c(N2CCN(C(=O)N3CCCCC3)CC2)nc2ccccc21,2.6%,-6%,-5%,-11
COC(=O)c1c(C)[nH]c(C(=O)/C=C/c2ccccc2Cl)c1C,0.2%,2%,-59%,12
CC(Oc1ccc(F)cc1)C(=O)Nc1sc2c(c1C(=O)NCc1cccnc1)CCCC2 (stereo not given),-2.5%,-5%,18%,-3
CCCc1cc(=O)[nH]c(SCCOC(=O)c2ccccc2)n1,2.9%,-12%,-8%,1
Nc1c(C(=O)Nc2cccc(F)c2)nnn1-c1ccc2c(c1)OCCO2,-2.5%,10%,-56%,·
COc1ccc(CCCc2nnc(SCC(=O)Nc3cccc(C)c3)o2)cc1,-2.4%,18%,0%&1%,-5
CCC(C)NC(=O)CCn1c(-c2ccccc2)cc(C(C)=O)c1C (stereo not given),0.3%,-11%,-1%,1
C=CC[C@@H](CC(=O)N[C@H](CO)Cc1ccccc1)C(=O)N[C@H](COC(=O)[C@H](CC=C)CC(=O)OC(C)(C)C)Cc1c[nH]c2ccccc12,-1.5%,-9%,·,·
Cn1cc(P(=O)(N2CCOCC2)N2CCOCC2)cc1P(=S)(N1CCOCC1)N1CCOCC1,0.2%,5%,0%,7
Cn1c(N)c(C(=O)/C=C/c2ccccc2)c(=O)[nH]c1=O,-4.9%,-13%,-68%,2
CCc1ccc2oc(-c3ccc(OC)cc3)cc(=Nc3cccc(C(=O)O)c3)c2c1,6.5%,-4%,-2%,10[21.1 µM]
COc1cc2c(C(=O)O)c(C)n(CC(C)C)c2c2ccccc12,2.5%,-16%,-8%,2
COc1ccc(OC)c(NC(=O)CSc2nnc(-c3ccncc3)s2)c1,5.5%,9%,0%,·
CCOc1cc(N2CCOCC2)c(OCC)cc1NC(=O)CN1CCc2ccccc2C1,-3.6%,17%,7%,-5
O=C1c2ccccc2C(=O)C12OC2c1ccc(Cl)cc1 (stereo not given),·,·,-3%,5
O=C1/C(=C/c2cccs2)Cc2ccccc21,-0.7%,-13%,-59%,-23
O=C(Nc1cccc(Cl)c1)N1CCCCCC1,-2.0%,-5%,-29%,·
COc1ccccc1C(=O)N1CCN(S(=O)(=O)c2ccccc2)CC1,-2.9%,-16%,-4%,3
O=S(=O)(Nc1cccc(Oc2ccc(Cl)cc2)n1)c1ccc(F)cc1,-5.3%,-9%,-6%,·
Cc1cnc(C(=O)NC(Cc2ccccc2)c2ccccc2)cn1 (stereo not given),3.3%,1%,-8%,·
COc1ccc(OC(=O)/C=C/c2ccc([N+](=O)[O-])cc2)cc1,1.0%,18%,-4%,·
CCN(CC)c1ccc(CNC23CN4CN(CN(C4)C2)C3)cc1,-0.5%,-25%,-1%,-8
Cc1cc(NC(=O)CN2CCN(C/C=C/c3ccccc3)CC2)c([N+](=O)[O-])cc1C,-0.1%,6%,-6%,1
Cc1noc(C)c1C(=O)OCC(=O)NC(=O)NC12CC3CC(CC(C3)C1)C2,-1.2%,1%,-13%,-11
O=[N+]([O-])c1ccccc1NC1CCN(Cc2ccccc2)CC1,0.1%,-6%,6%,1

# In the list so far, these have two or more sulfur atoms:
SMILES,Rango-impB inh,Rango release inh,miR-21 reporter,GLA inh pH 4.5
Cc1ccc(S(=O)(=O)N(C)CC(=O)Nc2nnc(CC(C)C)s2)cc1,-0.6%,18%,3%,·
COc1ccc(OC)c(NC(=O)CSc2nnc(-c3ccncc3)s2)c1,5.5%,9%,0%,·

# Single entries from above.
# Cn1c(N)c(C(=O)/C=C/c2ccccc2)c(=O)[nH]c1=O in GLA inh pH 4.5 shows 2
# COc1ccc(OC(=O)/C=C/c2ccc([N+](=O)[O-])cc2)cc1 in Rango release inh shows 18%
# Cc1cc(NC(=O)CN2CCN(C/C=C/c3ccccc3)CC2)c([N+](=O)[O-])cc1C in Rango release inh shows 6%
# COc1cc2c(C(=O)O)c(C)n(CC(C)C)c2c2ccccc12 in GLA inh pH 4.5 shows 2

# More results follow:
SMILES,Rango-impB inh,Rango release inh,miR-21 reporter,GLA inh pH 4.5
CCOC(=O)c1nn(-c2ccc3c(c2)OCO3)cc1O,-2.5%,2%,-32%,-3
CS(=O)(=O)N1CCc2cc(C(=O)N3CCOCC3)ccc21,-1.8%,-12%,0%,-2
O=C(Nc1ccccc1)c1ccc2ccccc2n1,-1.8%,3%,-29%,9
O=C(CCN1CCN(c2ccccc2)CC1)NNC(=O)Cc1ccccc1Cl,-1.8%,-12%,·,·
Cc1nn(-c2ccccc2)nc1-c1nnc(-c2ccc(C(F)(F)F)cc2)o1,-0.9%,37%,-1%,-9
C[N+](C)(C)CCCCCC[N+](C)(C)C,-0.3%,1%,·,3&-11&0&0
CC(C)OC(=O)CC1=NC(=O)CS1,?,0%,-3%,5
CCCc1c(NC(=O)Nc2ccc(F)cc2)cnn1-c1ccccc1,?,1%,6%,-2
C=CCSc1nc2ccccc2n1S(=O)(=O)c1ccc(Cl)cc1,3.6%,-13%,·,·
Cc1cc(NC(=O)c2cncc(Br)c2)no1,1.4%,10%,-1%,5
Cc1ccccc1C(=O)Nc1cc(NC(=O)c2ccccc2C)cc(C(=O)O)c1,0.8%,1%,-1%,·
CC(=O)Nc1ccc(SC[C@H](CC(C)C)N2CCN(CCc3ccccc3)CCC2=O)cc1,0.6%,4%,16%,-1
O=C(O)c1ccc(Nc2nc(-c3ccccc3)cs2)cc1,-0.9%,0%,-34%,0
CCN(CC(=O)Nc1c(F)cccc1F)C(=O)c1ccc(S(=O)(=O)N(CC)c2ccccc2)cc1,0.8%,-17%,·,·
O=C(Cn1ncc2c([nH]c3ccccc32)c1=O)Nc1ccc(CN2CCCCC2)cc1,0.3%,-4%,8%,·
CCCC(=O)NCCCCNC(=O)CCC,-1.3%,1%,0%,-2
Cc1ccc(NC(=O)c2ncn[nH]2)cc1,-1.6%,6%,-17%,4
Cc1ccc(NC(=O)CC2NCCN(Cc3ccccc3)C2=O)cc1 (stereo not given),6.4%,0%,-1%,1
O=C(CC1NCCc2ccccc21)Nc1ccc(Oc2ccccc2)cc1 (stereo not given),-1.5%,16%,11%,-1
CCN(CC)S(=O)(=O)c1ccc(-c2csc(C)n2)s1,?,7%,0%,-1
CC(C)NC(=O)N(C)C[C@H]1Oc2ccc(NC(=O)Cn3cnnn3)cc2C(=O)N([C@H](C)CO)C[C@@H]1C,-1.5%,-6%,·,·
CCOC(=O)c1ccc(N2CCOCC2)c(NC(=O)c2c(-c3ccccc3)noc2C)c1,-1.7%,-11%,24%,-6
O=C(O)C1CC=CCC1C(=O)NCCc1cccc(Cl)c1 (stereo not given),-0.7%,-2%,-4%,10
CCOc1cc(S(=O)(=O)NCc2ccccc2)ccc1Br,6.2%,-8%,-10%,-6
Cc1ccc(Cn2nc(C)c(NC(=O)CCCn3nc([N+](=O)[O-])c(Cl)c3C)c2C)cc1,5.5%,0%,-5%,-6
CN1CCN(C(c2cccc(Cl)c2)c2ccccc2Cl)CC1 (stereo not given),-0.3%,-18%,15%,-10
CCOCc1nc(N)[nH]c(=O)c1Cc1ccc(OC(C)C)cc1,3.0%,-9%,-14%,0
Cc1ccc(NC(=O)CSc2nnc(C3COc4ccccc4O3)o2)c(Cl)c1 (stereo not given),-3.3%,0%,-5%,3
COc1ccc(N2CCN(C(=O)c3ccc(CS(=O)c4cccc(C)c4)o3)CC2)cc1 (stereo not given),-0.2%,-14%,22%&23%,·
Cn1nc(-c2ccc(C(=O)N3CCN(CCO)CC3)cc2)c2ccccc2c1=O,-3.6%,-10%,-2%,1
COCCn1cnnc1SCC(=O)Nc1sccc1C(N)=O,-0.9%,-7%,0%,2
Cc1cc(C(=O)CSc2nnnn2-c2ccc(Cl)cc2)c(C)n1CC1CCCO1 (stereo not given),-4.5%,-7%,-6%,2
O=C(COc1cc(F)ccc1[N+](=O)[O-])N1N=C(c2cccs2)CC1c1ccco1 (stereo not given),1.9%,15%,·,·
COCCNC(=O)CN1C(=O)NC2(CCOc3ccccc32)C1=O (stereo not given),-0.2%,-8%,-1%,·
CC(=O)c1cccc(NC(=O)CC(C)n2ccnc2)c1 (stereo not given),-0.5%,0%,6%,·
CC(C)NC(=O)NC(=O)CN1C(=O)NC2(CCc3ccccc3C2)C1=O (stereo not given),5.1%,-8%,1%,·
COc1ccccc1-n1c(C)cc(/C=C2\C(=N)N3N=C(CC(=O)N4CCOCC4)SC3=NC2=O)c1C,-2.4%,11%,-16%,·
Cc1ccc(C(=O)NNC(=O)c2cccs2)cc1,2.3%,-4%,-40%,4[21.1 µM]
COC(=O)c1ccc(Cn2cnc3c(sc4nc(N5CCOCC5)c5c(c43)CCCC5)c2=O)o1,0.0%,-1%,-20%,-17
CC(C)CNC(=O)COC(=O)C1c2ccccc2Oc2ccccc21,-0.1%,-6%,4%,·

# Overlap with the part before: 6 compounds, then new ones.
SMILES,Rango-impB inh,Rango release inh,miR-21 reporter,GLA inh pH 4.5
CC(=O)c1cccc(NC(=O)CC(C)n2ccnc2)c1 (stereo not given),-0.5%,0%,6%,·
CC(C)NC(=O)NC(=O)CN1C(=O)NC2(CCc3ccccc3C2)C1=O (stereo not given),5.1%,-8%,1%,·
COc1ccccc1-n1c(C)cc(/C=C2\C(=N)N3N=C(CC(=O)N4CCOCC4)SC3=NC2=O)c1C,-2.4%,11%,-16%,·
Cc1ccc(C(=O)NNC(=O)c2cccs2)cc1,2.3%,-4%,-40%,4[21.1 µM]
COC(=O)c1ccc(Cn2cnc3c(sc4nc(N5CCOCC5)c5c(c43)CCCC5)c2=O)o1,0.0%,-1%,-20%,-17
CC(C)CNC(=O)COC(=O)C1c2ccccc2Oc2ccccc21,-0.1%,-6%,4%,·
CN(Cc1nc(-c2ccc3c(c2)OCO3)no1)CC1(N2CCOCC2)CCCCC1,-1.0%,6%,-18%,-5
O=C(COC(=O)c1c2ccccc2cc2ccccc12)NCC(F)(F)F,0.3%,-10%,-11%,-7
CCc1ccc(NC(=O)CS(=O)CC(=O)NCC2OCCc3ccccc32)cc1 (stereo not given),-1.6%,-6%,0%,-8
O=C(COc1ccc(-n2ccnc2)cc1)Nc1cccc(F)c1,1.3%,18%,-4%,3
O=[N+]([O-])c1ccc(SCc2ccncc2)nc1,-2.0%,19%,-2%,·
Cc1ccc(C(=O)N/N=c2\oc3ccccc3cc2C(N)=O)cc1,1.1%,11%,-4%,·

# Screening results deposited in PubChem by National Center for Advancing Translational Sciences (NCATS).

# This is a subset, so the mix of outcomes need not match the whole.
